Screening results: PubChem, ICCB-Longwood Screening Facility, Harvard Medical School
Sa growth 42C: blocks Staphylococcus aureus growth. 170,000 tested, 0.53% active. S. aureus RN4220 growth, OD600, 20 h, 42 °C; hits give low values. relative growth, % (test concentration not listed);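 active = growth at 42 °C up to 50% and 20 or more points under that at 30 °C, or under 10% at both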;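 note: 300 nL library stock went into each well; scaled to the means of positive and negative controls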
HCMV NEC inh: disrupts HCMV UL50-UL53 complex binding; HTRF UL50-UL53 interaction, normalized percent inhibition; inhibition, % (concentration not given with the values); 190,000 tested, 0.15% active;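 active = both replicates at 50% or more, plus weaker picks with an unusually low signal ratio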;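 note: stock transfer was 100 nL into about 20 µL; 0% = negative control wells and 100% = wells with untagged competitor protein; inactives centre near -12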
GIV Gai3 FP: inhibitors of GIV GBA-motif binding to rat Galpha-i3; Galpha-i3/FITC-GIV peptide fluorescence polarization, 90 min; hits give low values; scaled: aluminum fluoride 0%, vehicle 100%; percent of control (FP), % (concentration not given with the values); 210,000 tested, 0.42% active; AID 1224905;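 active = replicate mean at 85% of control or lower, very high polarization wells dropped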;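 note: wells of about 15 µL received 100 nL stock; the first replicate is given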
Target sequence (P08753 whole entry, looked up): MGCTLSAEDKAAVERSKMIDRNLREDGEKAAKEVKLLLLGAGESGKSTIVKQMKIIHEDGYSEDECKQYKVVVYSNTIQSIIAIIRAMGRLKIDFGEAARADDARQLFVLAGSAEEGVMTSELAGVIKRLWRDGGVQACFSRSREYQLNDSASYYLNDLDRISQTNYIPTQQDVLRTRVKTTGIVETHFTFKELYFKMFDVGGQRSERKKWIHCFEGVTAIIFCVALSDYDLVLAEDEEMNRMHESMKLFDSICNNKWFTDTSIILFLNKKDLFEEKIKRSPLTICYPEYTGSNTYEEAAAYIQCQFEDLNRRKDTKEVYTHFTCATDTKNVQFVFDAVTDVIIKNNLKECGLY
Sa growth 42C second temp: second read-out of Sa growth 42C, no call of its own (marks repeat the call); relative growth, %; measured here: growth at 30 °C;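 optical density after 20 h as mean of two plates; 100% = untreated growth and lower means inhibition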
* hit, by the source's call; . = no result given; & = joins results of further samples. Not all compounds are listed, so the mix of outcomes need not match the whole.

SMILES	Sa growth 42C	Sa growth 42C second temp	HCMV NEC inh	GIV Gai3 FP
O=C1NC(=S)NC(=O)C1C1CCCCC1	97	85	-43	95
O=c1c2ccccc2nc(-c2ccncc2)n1-c1ccc(Cl)cc1	96	102	15	.
O=c1cccc2n1CC1CC2CN(CC(O)/C=N/n2cnnc2)C1 (configuration not stated)	52	42	-29	.
CCN(CC)C(=O)c1ccc(N2C(=O)C3C4C=CC(C4)C3C2=O)cc1 (configuration not stated)	87	84	-26	100
CCOC(=O)c1c(C)n(Cc2ccccc2)c2ccc(OCC(O)CN3C(=O)CNC3=O)cc12 (configuration not stated)	117	96	-12	109
CC(=O)N1CCCSC1=Nc1ccccc1	90	91	-22	.
Cc1cc(C)c(C=C(C#N)C#N)[nH]1	94	85	-93	102
CC1(C)C(C(=O)Nc2ccc(S(=O)(=O)c3ccc(NC(=O)C4C(C)(C)C4(C)C)cc3)cc2)C1(C)C	101	80	-12	.
CC(C)NC(C)C(=O)c1ccc2ccccc2c1 (configuration not stated)	102	103	-47	96
O=C1NC2(CCNCC2)N=C1c1ccc(Cl)cc1	86	82	-12	106
CC1=C(C(=O)OC(C)C)C2(C(=O)Nc3ccccc32)C(C(=O)OC(C)(C)C)=C(N)O1 (configuration not stated)	.	.	-12	107
N#Cc1cc2c(nc1SCC(=O)NCc1ccc(F)cc1)C1CCN2CC1	85	104	2	103
N#CCN1CCN(Cc2ccccc2)CC1	94	92	-9	.
CCCCN1CCC(O)(c2ccccc2)C(C(=O)c2ccccc2)C1 (configuration not stated)	101	92	-36	104
CC1CCCCN1CC(=O)c1cc(Cl)ccc1Cl (configuration not stated)	98	97	-12	.
CC(=O)Nc1cc(C(=O)N2CCC3(CC2)OCCO3)ccc1S(=O)(=O)c1ccc(Cl)cc1	94	96	-36	102
O=C(Cc1ccccc1)OCn1nnc2ccccc2c1=O	76	36	-43	102
CN1CCCC(OC(=O)c2cccnc2Cl)C1 (configuration not stated)	87	85	-6	.
N#Cc1ccccc1CCl	82	64	15	.
O=C(Cn1c(=O)oc2cc(Cl)ccc21)N1CCC2(CC1)OCCO2	89	101	0	108
S=c1[nH]nc(CCN2CCN(c3ccc(Cl)cc3)CC2)n1-c1ccccc1	89	92	1	105
N#CC1=C(N)Oc2c(c(=O)oc3ccccc23)C1c1ccccc1 (configuration not stated)	97	92	-2	109
CC12CC[C@H]3[C@@H](CCC4(O)C[C@H](O)CCC34/C=N/NC(N)=O)C1(O)CCC2C1=CC(=O)OC1 (some centres not stated)	99	92	-15	102
CCCCP(=O)(O)c1ccccc1	100	92	12	105
CC1(C)CC(CCNCc2ccc3c(c2)OCO3)(Cc2ccccc2)CCO1 (configuration not stated)	93	82	-11	.
Cc1ccc(N2C(=O)NC(=O)/C(=C\c3cc(C)n(-c4cc(C(=O)O)cc(C(=O)O)c4)c3C)C2=O)cc1	.	.	32*	106
CCC1NCCc2c1[nH]c1ccccc21 (configuration not stated)	.	.	-13	108
NC(=O)CN1CC(O)CC1=O (configuration not stated)	.	.	-25&-23	95
CC(=O)Nc1ccc(NC(=O)CN2CC=C(c3ccccc3)CC2)cc1	90	99	12	.
COc1ccc(C=C2C(=O)NC(=S)NC2=O)cc1	101&94	81&79	2&-22	96
CC(=O)N=c1nc(-c2ccccc2)n(-c2ccccc2)s1	94	84	-20	.
COc1ccc(C=C(C#N)C#N)cc1Br	92	76	1	98
CCn1c(O)c(C=Nc2ccc(S(N)(=O)=O)cc2)c(=O)[nH]c1=S	95	102	14	108
Cc1ccc(Cn2cccc(C(=O)Nc3nc4ccc(C)cc4s3)c2=O)cc1	102	102	.	104&97
CCN(CC)CCSc1nc2ccccc2c(=O)n1-c1ccc(OC)cc1	102	86	-11	102
CN=Cc1c[nH]c2ccccc12	111	84	-34	.

In the list so far, 5 contain an NH in an aromatic ring:
SMILES	Sa growth 42C	Sa growth 42C second temp	HCMV NEC inh	GIV Gai3 FP
Cc1cc(C)c(C=C(C#N)C#N)[nH]1	94	85	-93	102
S=c1[nH]nc(CCN2CCN(c3ccc(Cl)cc3)CC2)n1-c1ccccc1	89	92	1	105
CCC1NCCc2c1[nH]c1ccccc21 (configuration not stated)	.	.	-13	108
CCn1c(O)c(C=Nc2ccc(S(N)(=O)=O)cc2)c(=O)[nH]c1=S	95	102	14	108
CN=Cc1c[nH]c2ccccc12	111	84	-34	.

(list continues)
SMILES	Sa growth 42C	Sa growth 42C second temp	HCMV NEC inh	GIV Gai3 FP
CCCN1CCN(C(=O)Cc2csc(-c3ccc(OC)c(OC)c3)n2)CC1	105	93	-71	.
Cc1nc2ccccc2c(=O)n1-c1ccc2c(c1)OC(F)(F)O2	94	86	-11	.
CC1CN=C(Nc2ccc(C(C)C)cc2)S1 (configuration not stated)	107	77	-26	.
Cc1cc(C=C(C#N)C#N)c(C)n1C1CCCC1	89	72	-12	102
CCOc1ccc(N(C(C)=O)C2=NCCCS2)cc1	73	88	10	104
COc1ccc(C2C(C(=O)N3CCC4(CC3)OCCO4)c3ccccc3C(=O)N2C)cc1 (configuration not stated)	83	86	-3	96
CC1(C)CN=C(Nc2ccc(C(F)(F)F)cc2)S1	112	102	-5	97
COc1cc(-c2nnc(COC(=O)C(O)(c3ccccc3)c3ccccc3)o2)cc(OC)c1OC	101	84	-30	.
O=C(C1CCC(=O)N1C1CCCC1)N1CCC2(CC1)OCCO2 (configuration not stated)	88	80	4	105
O=C(NC1CC1)C1CSC(c2cccnc2)=N1 (configuration not stated)	76	91	0	101
N#CCCn1cc(C(=O)Oc2ccccc2)c(-c2cccc(Br)c2)n1	101	105	17	107
CC(=O)OC1CCNC2CCCCC21 (configuration not stated)	98	86	-7	105
N#CC1=C(N)Oc2c(c(=O)oc3ccccc23)C1c1cc([N+](=O)[O-])ccc1Cl (configuration not stated)	.	.	-13	99
CCOc1ccc(CN(CCc2ccc3c(c2)OCO3)Cc2ccc(CC)cc2)cc1	77	77	-61	105
CN1CCC(OC(=O)Cc2ccccc2)CC1	102	90	-12	.
CCC(C)n1[nH]c(=O)c2c1NC(=O)CSC2c1ccc(Cl)cc1 (configuration not stated)	.	.	-17	96
CC1CCP(=S)(N(C)C)O1 (configuration not stated)	101	80	9	100
CC12CN3CC(c4ccccc4)(CN(C1)C31CCCCC1)C2=O	96	92	-10	97
FC(F)(F)/C(=N\P(=S)(N1CCOCC1)N1CCOCC1)N1CCOCC1	104	94	-36	.
COc1cccc(CN2CCCN(Cc3ccccc3)S2(=O)=O)c1	.	.	-2	100
CN(C)c1ccc(/C=C2/C(=O)NC(=O)N(C3CCCCC3)C2=O)cc1	121	71	-6	170
CN(C(=O)Oc1cccc2cccnc12)c1ccccc1	122	85	.	103
NCC1(CC(=O)O)CCCCC1	91	93	-36&-17&-17&-8&-32	101&102
c1ccc(CCN2CCOCC2)cc1	98	82	7	108
O=C1NC(=O)C(CCc2ccncc2)(CCc2ccncc2)C(=O)N1Cc1ccccc1	90	81	-8	.
COc1cc(C2=NC(O)C(=O)Nc3ccc(Cl)cc32)ccc1O (configuration not stated)	96	81	-15	106
COc1ccc(CN2CCNCC2CCO)c(C)c1C (configuration not stated)	99	95	-13	106
C/C=C1/C[C@@H](C)[C@](O)(CO)C(=O)OCC2=CCN3CC[C@@H](OC1=O)[C@@H]23	122	96	4&-3	.
CS(=O)(=O)Nc1ccc(Cc2noc(-c3ccc4[nH]cc(CCN)c4c3)n2)cc1	81	92	-8&-82	.
c1cncc(C2NCCc3c2[nH]c2ccccc32)c1 (configuration not stated)	.	.	-21	98
O=C1NC(=O)C(C(c2ccccc2)c2ccccc2)C(=O)N1	103	95	2	102
CC1Cc2ccccc2CN1 (configuration not stated)	109	96	-12	100
CCN1CCN(C(=O)Cc2c(C)nc3nc(-c4ccccc4)nn3c2C)CC1	.	.	-28	103
Cc1ccc(NC(=S)NC2CN3CCC2CC3)cc1 (configuration not stated)	82	84	-42	.
Cc1ccc(C(C)C)c(OCC(=O)N2CCN(CCc3ccncc3)CC2)c1	101	90	-14	100
CC(=O)Nc1ccccc1OC(=O)N(C)C	96	91	-7	103

Four records picked at random from those above, as already listed:
SMILES	Sa growth 42C	Sa growth 42C second temp	HCMV NEC inh	GIV Gai3 FP
O=C1NC(=O)C(C(c2ccccc2)c2ccccc2)C(=O)N1	103	95	2	102
c1cncc(C2NCCc3c2[nH]c2ccccc32)c1 (configuration not stated)	.	.	-21	98
COc1cc(C2=NC(O)C(=O)Nc3ccc(Cl)cc32)ccc1O (configuration not stated)	96	81	-15	106
C/C=C1/C[C@@H](C)[C@](O)(CO)C(=O)OCC2=CCN3CC[C@@H](OC1=O)[C@@H]23	122	96	4&-3	.

(more compounds)
SMILES	Sa growth 42C	Sa growth 42C second temp	HCMV NEC inh	GIV Gai3 FP
COc1cc2c(cc1OC)-c1c(OC)c(OC)c(N)c3c1[C@H](C2)N(C)CC3	82	94	9	.
N=c1c[n+](CCc2ccccc2)[n-]o1	98	96	.	104
CCOC(=O)C1C(=O)NC2(C)Oc3ccccc3C1C2C (configuration not stated)	86&88	85&80	-18&-6	95
CN(C)Cc1c(O)[nH]c(=S)[nH]c1=O	95	113	-8	98
CCCCn1nc(C)c(C(=O)O)c1Cl	104	99	-34	.
CC1CCCN(C(=O)CN2C3CCC2CC(O)(c2cccnc2)C3)C1 (configuration not stated)	104	86	-14	103
COc1cccc(N2C(=O)NC(=O)C(CCc3ccncc3)(CCc3ccncc3)C2=O)c1	102	92	-4	.
CCOc1ccc2nc(NC(=O)c3cccn(Cc4ccccc4)c3=O)sc2c1	154	85	.	102
CC[C@@]1(O)C(=O)OCc2c1cc1n(c2=O)Cc2cc3c(O)cccc3nc2-1	90	91	-78&-59	77*
COc1cccc(OC)c1C1=NCC(=O)Nc2c1oc1ccc(Br)cc21	105	66	.	99
O=C(CCN1C(=O)CCC1=O)OCC1CCCN2CCCCC12 (configuration not stated)	85	87	-2	.
CN(C)C(=O)Oc1ccc(OC(=O)N(C)C)cc1	91	83	-21	95
Cn1c(C=C(C#N)C#N)ccc1S(C)(=O)=O	83	66	-22	100
NC(=S)N/N=C/c1coc2ccccc2c1=O	97	84	-4	103
C#CC1(O)CCC2C3CCC4=CC(=O)CCC4(C)C3CCC21C (configuration not stated)	101	97	-8	.
Cc1cc(OCC(=O)N2CCN(CCc3ccncc3)CC2)cc(C)c1Cl	107	88	3	100
CC(=O)N1CCC(C(=O)O)(c2ccccc2)CC1	95	87	-29	.
CC1=CC(=O)C2=C(C)CC(O)C3C(C)C(=O)OC3C12 (configuration not stated)	84	101	-9	90
CCC(C)n1[nH]c(=O)c2c1NC(=O)CSC2c1ccc(OC)c(OC)c1 (configuration not stated)	.	.	-14	93
O=C(NCCCN1CCCC1=O)c1cc2cccnc2n(Cc2ccc(F)cc2)c1=O	.	.	-40	106
O=C(c1ccc2nc(N3CCCCC3)sc2c1)N1CCC2(CC1)OCCO2	109	94	.	100
COCCNC(=O)CN1C2CCC1CC(O)(c1cccnc1)C2 (configuration not stated)	95	76	-3	99
O=c1c2ccccc2nc(-c2ccccc2)n1-c1ccc(O)cc1	107	94	2	102
CCOC(=O)c1ncn2c1[C@@H]1CCCN1C(=O)c1cc(OC)ccc1-2	.	.	-3&-6	100
O=C1C=Cc2ccc3c4c(ccc1c24)C=CC3=O	72	53	-35	100
CCc1nc2ccccc2c(=O)n1-c1ccc(OC)cc1	90	84	-12	.
COc1ccc(C)cc1NC(=O)c1cccn(Cc2ccccc2Cl)c1=O	85	83	.	101
O=c1c2ccccc2nc(/C=C/c2c[nH]c3ccccc23)n1-c1ccccc1	.	.	-8	109
Cc1nnc2n1-c1ccc(Cl)cc1C(c1ccccc1)=NC2	102	85	-37	.
O=C1NCCN2CCCC12 (configuration not stated)	101	92	-3	103
CCOc1ccc(Br)cc1C1C(C#N)=C(N)Oc2c1c(=O)oc1ccccc21 (configuration not stated)	.	.	-10	108
CC12CCC3C(CCC4CCCCC43C)C1C/C(=C\c1ccc[nH]1)C2=O (configuration not stated)	96	82	-8	.
CC1(c2ccccc2)CNC(=O)C1 (configuration not stated)	84	88	.	97
COc1cccc(OCC(=O)N2CCN(C)CC2)c1	85	83	-14	101
Cc1ccc(-n2c(/C=C/c3ccc(Br)s3)nc3ccccc3c2=O)cc1C	102	102	.	109
[C-]#[N+]c1ccc(Cl)cc1C(C)S(=O)(=O)c1ccc(C)cc1 (configuration not stated)	4.3*	7.1*	11	.
O=CNc1nonc1NNc1nonc1NC=O	12	0	-7	109
COc1ccc(NC(=O)CN2C(=O)CN=C(c3ccccc3)c3ccccc32)c(OC)c1	119	92	.	108&106
CCOc1ccccc1NC(=O)c1cccn(Cc2ccccc2C)c1=O	81	84	.	100
C=C(C)C1CC=C(CN(C)C2CCN(C)CC2)CC1 (configuration not stated)	92	102	8	104
N#Cc1cc2c(nc1SCC(=O)Nc1ccc(Cl)cc1)C1CCN2CC1	114	96	-17	99
CCN1CCN(Cc2ccccc2Cl)CC1	105	101	-7	100
CN1C(=O)C(=Cc2cn(Cc3ccc(Cl)cc3)c3ccccc23)C(=O)N(C)C1=O	.	.	-26	98
NC(CCCCCP(=O)(O)O)C(=O)O (configuration not stated)	.	.	4	108
